Source: PubChem BioAssay
Mtb MbtI inh = MbtI salicylate synthase inhibitors, primary screen, biochemical, fluorescence intensity | purified MbtI enzyme, fluorescence intensity read-out | inhibition, %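 (about 17 µg/mL by stock and volumes)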 | 100,000 compounds, 0.89% hits | AID 493033, 2011;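 active = above 50% in both replicates, above 80% if mildly self-fluorescent; inactive = the rest, strongly fluorescent compounds included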;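 also: 0% = mean of negative and 100% = mean of positive controls; one replicate is shown; some compounds called inactive have numbers as strong as hits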
Target sequence (P9WFX0 whole entry, looked up): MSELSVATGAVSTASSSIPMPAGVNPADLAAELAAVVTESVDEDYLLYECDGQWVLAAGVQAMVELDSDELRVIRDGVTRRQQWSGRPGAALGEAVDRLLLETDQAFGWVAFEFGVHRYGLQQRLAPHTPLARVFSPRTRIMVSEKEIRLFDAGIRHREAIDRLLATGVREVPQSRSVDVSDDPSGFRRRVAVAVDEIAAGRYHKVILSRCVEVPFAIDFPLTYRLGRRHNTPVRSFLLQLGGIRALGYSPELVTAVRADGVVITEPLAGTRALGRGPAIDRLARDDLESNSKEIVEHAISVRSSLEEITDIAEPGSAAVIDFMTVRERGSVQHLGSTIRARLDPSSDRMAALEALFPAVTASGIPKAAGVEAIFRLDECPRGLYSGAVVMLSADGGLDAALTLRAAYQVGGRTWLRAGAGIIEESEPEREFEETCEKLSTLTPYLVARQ
MenB inh = M. tuberculosis MenB inhibitors, primary screen, biochemical, absorbance; 1,4-dihydroxy-2-naphthoyl-CoA synthase (Mycobacterium tuberculosis (strain ATCC 25618 / …; AID 540299, 2011; MenB enzyme assay, absorbance read-out; some hits fall short of the stated cut; 100,000 compounds, 0.43% hits; inhibition, %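 (about 12 µg/mL by stock and volumes)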;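 active = mean of two replicates above 30%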;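 also: 0% = no compound and 100% = wells with inactive enzyme; the first replicate is given; strong numbers were not always called active; inactives centre near -10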
Target sequence (P9WNP5 whole entry, looked up): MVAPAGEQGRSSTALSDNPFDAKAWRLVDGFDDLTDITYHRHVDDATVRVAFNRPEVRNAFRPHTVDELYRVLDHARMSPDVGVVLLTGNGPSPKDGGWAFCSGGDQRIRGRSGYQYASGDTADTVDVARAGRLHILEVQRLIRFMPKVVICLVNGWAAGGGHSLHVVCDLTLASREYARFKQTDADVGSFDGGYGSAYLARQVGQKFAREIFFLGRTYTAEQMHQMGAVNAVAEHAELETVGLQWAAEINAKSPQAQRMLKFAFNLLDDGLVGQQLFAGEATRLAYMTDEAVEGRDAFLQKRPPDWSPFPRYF
Polio RdRp inh = poliovirus RdRp elongation inhibitors, primary screen, biochemical, fluorescence polarization, total intensity. Genome polyprotein (Poliovirus type 1 (strain Mahoney)), P03300. poliovirus polymerase elongation; active compounds read low. % elongation, % (compound at 16.7 µg/mL). 150,000 compounds, 0.66% hits. AID 588519, 2011; in the data active = % elongation below about 90%; also: some results filed as inactive read as strong as hits
Polio RdRp inh intensity = recorded beside Polio RdRp inh, whose call it bears; % elongation; measured here: total intensity read-out; formula for this scale not given here;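 total fluorescence in place of polarization; lower means less elongation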
The depositor's hits bear a star; . = no result given. This is a random part of the collection. Share with any hit: about 1.7%.

SMILES	Mtb MbtI inh	MenB inh	Polio RdRp inh	Polio RdRp inh intensity
O=C1c2ccccc2C(=O)N1/N=C/c1ccc2c(c1)OCO2	2	-21	102	104
Cc1sc2ncnc(SC(C)C(=O)NC3(C#N)CCCCC3)c2c1C (configuration not stated)	-10	3	102	102
Cc1ccc(/C=N/O)o1	-5	-27	103	105
COc1ccc(-c2csc(/C(C#N)=C(\O)CN3C(=O)c4ccccc4C3=O)n2)cc1OC	16	-30	104	102
C=CCC(C#N)(CC=C)c1ccc(OC)c(OC)c1	-12	18	103	104
O=C(c1ccc(F)cc1)c1cc2ccc(O)cc2oc1=O	39	-68	104	100
CSc1nnnn1-c1ccc(I)cc1	7	-12	99	99
CCOC(=O)Nc1ccc(C)cc1C	-4	.	99	99
COC(=O)c1ccc(-c2ccc(/C=C3/C(=O)N(C)C(=O)C(C#N)=C3C)o2)cc1	3	-6	102	102
Cc1[nH]c2ccccc2c1C=C1C(=O)OC2(CCCC2)OC1=O	5	-11	101	104
C=CCn1cn[nH]c1=S	61*	-7	101	102
COc1ccccc1-c1cc(C(F)(F)F)nc(S(=O)(=O)CCCC(=O)N2CCOCC2)n1	64	9	100	105
CSc1ccc(CN(C)CC(=O)NCc2ccccc2)cc1	-13	-12	103	105
O=C(O)CN(Cc1ccccc1)S(=O)(=O)/C=C/c1ccccc1	-9	-19	98	107
Oc1ccccc1N1CCN(C(=S)NCCN2CCOCC2)CC1	13	10	102	105
COC(=O)C(C(=O)OC)C(Nc1ccccc1)c1ccccc1 (configuration not stated)	.	3	25*	49*
C=CCn1ccn(-c2cccc(Cl)c2)c(=O)c1=O	-4	-4	102	98
CCOc1cccc(/C=C2\SC(=S)N(CC)C2=O)c1O	.	-6	104	116
Cc1nc(C(=O)O)nn1-c1cccc(C(F)(F)F)c1	7	-3	94	97
O=C(c1cccc(NC2=NC3CS(=O)(=O)CC3S2)c1)N1CCN(Cc2ccc3c(c2)OCO3)CC1 (configuration not stated)	-10	-9	101	101
COc1cc(C(=O)OC(C)C(=O)NCC2CCCCC2)cc(NC(=O)c2ccco2)c1OC (configuration not stated)	-6	-17	103	96
COc1ccc2c(c1)c1nc3ccccc3nc1n2CC(C)C	-6	-10	51	227
O=C(N/N=C/C=C/c1ccccc1)c1ccccc1O	27	-72	98	102
Cc1csc2nc(CSc3ccc(Cl)cc3)c(Br)n12	2	-20	103	104
O=C(OCC(=O)N1CCCC1=O)c1ncc(Cl)c(Cl)c1Cl	-6	-13	105	105
CCCn1c(=O)c(C(=O)NCCc2ccccc2)c(O)c2ccccc21	-3	-18	104	108
CCOC(=O)C1=C(CN2CC=C(c3ccccc3)CC2)NC(=O)NC1c1ccc(OC)cc1 (configuration not stated)	-6	-23	104	103
CC(=O)NC(Nc1cccc(F)c1)(C(F)(F)F)C(F)(F)F	-2	15	101	101
O=C1OCCC1Sc1nnc(Cc2cccs2)n1C1CCCCC1 (configuration not stated)	-11	-27	102	105
CN(C)c1cccc(C(=O)N/C=C/n2cnc3cc(C(F)(F)F)ccc32)c1	-4	.	103	107
C=CCN(CC=C)Cn1[nH]c(-c2cccs2)nc1=S	96*	-3	99	97
O=C(O)c1cc(C(=O)O)c2cccc(Cl)c2n1	.	-12	96	105
COc1ccc(N/C=C(/C#N)c2nc(-c3cccs3)cs2)cc1	-17	-83	102	105
CCCC(C)C(=O)N1CCC(Cc2ccccc2)CC1 (configuration not stated)	-9	-32	102	99
CCOC(=O)c1cnc2c(ccc3ccccc32)c1NC1CC(C)(C)NC(C)(C)C1	-32	-10	100	106
CCOC(=O)C1C(=O)C=C(c2cccs2)CC1c1ccc(C)cc1 (configuration not stated)	-46	-28	104	103
O=C1NC(=NC2CCCC2)S/C1=C\c1cn(-c2ccccc2)nc1-c1cccs1	-5	-30	104	96
COc1ccc(Cn2c(=O)c3ccccc3n3c(-c4ccccc4O)nnc23)cc1	-12	-13	106	99
CC(CS(=O)(=O)c1ccccc1)N1CCCCC1 (configuration not stated)	.	-17	104	109
CN(C)C(CNC(=O)Cc1ccc(Cl)c(Cl)c1)c1ccco1 (configuration not stated)	-7	-12	111	126
C/[N+]([O-])=C\c1ccc(C(F)(F)F)cc1	7	7	105	110
O=C(c1c[nH]c2ccccc12)C(c1ccccc1)N1CCN(c2ccc(O)cc2)CC1 (configuration not stated)	3	-26	105	107
COc1ccc(OC)c(-c2csc(=NC(C)C)n2/N=C2\C(=O)N(C)c3ccccc32)c1	6	-46	56	232
Cc1cc(NC(=O)c2cccs2)no1	-6	-15	103	103
CC(C)CC1NC(=O)N(Cc2cccc(Br)c2)C1=O (configuration not stated)	0	-2	100	103
N#Cc1c(NC(=O)CCCCl)sc2c1CCC2	-1	.	103	99
O=C(NCCO)c1cc2sc3ccccc3c2s1	.	-22	105	109
Clc1nc2ccccc2c(N2CCOCC2)c1CNc1ccc(N2CCOCC2)cc1	3	-8	102	102
CCCOc1ccc(/C=C2/SC(=O)N(CN3CCCCC3)C2=O)cc1	-7	-16	102	103
O=C1NCCN1CCNS(=O)(=O)c1cccs1	-6	1	101	103
O=C(NCCC1=CCCCC1)c1cc(=O)[nH]c2ccccc12	-14	-4	99	104
COc1ccc(OC)c(/C=c2\s/c(=C(/C#N)c3nnc4n3CCCCC4)n(-c3ccccc3)c2=O)c1	-3	-42	44	245
O=C(CN1CCN(c2ncccn2)CC1)N(Cc1ccccc1)c1ccc(F)cc1	-1	-63	102	102
COc1ccc(NC(=O)c2ccco2)cc1NC(=O)C(C)C	4	-11	102	102
CN(C(=O)C(Cc1ccccc1)n1cccc1)C1CCCCC1 (configuration not stated)	-4	-17	103	107
CCOCCN1CCN(c2c3c(nc4cc(-c5cccc(C)c5)nn24)CCC3)CC1	50	-16	103	105
CC(C)(C)NC(=O)N1CCC2(CC1)CC(=O)c1ccccc1O2	66	-17	103	109
Cc1nnc(NC(=O)CC2CC3CCC2C3)s1 (configuration not stated)	-3	0	102	102
Cc1ccc(-c2cc(C(F)F)nc(S(C)(=O)=O)n2)cc1	118	-22	101	101
O=C(Cc1ccccc1)Nc1cccc(N2C(=O)C3CC=CCC3C2=O)c1 (configuration not stated)	1	-22	99	100

Just Polio RdRp inh intensity, for some of the entries so far:
molecule,Polio RdRp inh intensity
O=C(CN1CCN(c2ncccn2)CC1)N(Cc1ccccc1)c1ccc(F)cc1,102
COc1ccc(NC(=O)c2ccco2)cc1NC(=O)C(C)C,102
CN(C(=O)C(Cc1ccccc1)n1cccc1)C1CCCCC1 (configuration not stated),107
CCOCCN1CCN(c2c3c(nc4cc(-c5cccc(C)c5)nn24)CCC3)CC1,105
CC(C)(C)NC(=O)N1CCC2(CC1)CC(=O)c1ccccc1O2,109
Cc1nnc(NC(=O)CC2CC3CCC2C3)s1 (configuration not stated),102

New compounds follow
SMILES	Mtb MbtI inh	MenB inh	Polio RdRp inh	Polio RdRp inh intensity
COc1cccc(C(=O)N2CCCc3ccccc32)c1	-2	-2	97	98
Cc1ccc(NC(=O)C2C3C=CC(C3)C2C(=O)O)cc1 (configuration not stated)	-3	1	96	99
Fc1ccccc1Nc1nc(NCc2ccccc2)c2ccccc2n1	107	-2	101	96
O=C(Nc1ccccc1N1CCCC1)c1ccco1	.	-17	103	101
O=C(Nc1nccs1)c1ccc(S(=O)(=O)NCC2CCCCC2)cc1	22	-35	104	101
COc1cc(C(Nc2ccc(S(=O)(=O)N3CCCC3)cc2)C(=O)NC(C)(C)C)cc(OC)c1OC (configuration not stated)	-7	-2	100	103
O=C(NC1=NCCS1)C1Cc2ccccc2CN1C(=O)c1ccco1 (configuration not stated)	-12	-14	105	108
CCOC(=O)C1=CC(=C2C(=O)NC(=O)NC2=O)c2ccccc2O1	0	-53	103	104
Cn1c(/C(C#N)=N/OC(=O)c2ccccc2)nc2ccccc21	1	-18	99	108
Cc1ccc(-n2nc(C)c(C3=CCCCC3)c2N)cc1	-11	.	103	105
Cn1c(O)c(N=NC(=O)c2ccccc2)c2ccccc21	-1	-22	101	102
COc1cccc(NC(=O)CCS(=O)(=O)c2ccccc2)c1	-13	-18	107	102
O=C(CSc1nnc(CNC(=O)c2cccs2)o1)NCC1CCCO1 (configuration not stated)	4	-27	101	107
CC(C)(C)Nc1nc(NN)nc(NC(C)(C)C)n1	0	-43	102	102
O=C(NC1CC(=O)N(c2ccccc2)C1)C1CC1 (configuration not stated)	-5	-32	108	95

Brought forward from above: five entries, followed by the next part.
SMILES	Mtb MbtI inh	MenB inh	Polio RdRp inh	Polio RdRp inh intensity
Cn1c(O)c(N=NC(=O)c2ccccc2)c2ccccc21	-1	-22	101	102
COc1cccc(NC(=O)CCS(=O)(=O)c2ccccc2)c1	-13	-18	107	102
O=C(CSc1nnc(CNC(=O)c2cccs2)o1)NCC1CCCO1 (configuration not stated)	4	-27	101	107
CC(C)(C)Nc1nc(NN)nc(NC(C)(C)C)n1	0	-43	102	102
O=C(NC1CC(=O)N(c2ccccc2)C1)C1CC1 (configuration not stated)	-5	-32	108	95
O=C1CCc2ccccc2CN1	-7	1	99	104
O=C(CCC1N=C2c3ccccc3N=C(SCc3ccc(F)cc3)N2C1=O)NCc1ccco1 (configuration not stated)	-16	-6	98	102
COC(=O)C12C3CC4C5C(C(=NNC(N)=S)C41)C2C53 (configuration not stated)	-1	-21	103	106
COc1ccc(S(=O)(=O)NC(C)C(=O)N2CCN(C)CC2)cc1Cl (configuration not stated)	-13	-18	106	101
COCCNC(=O)c1ccc(-c2ccccc2)s1	86	-4	103	104
COc1ccc(CNc2nc(SC)n[nH]2)cc1OC	-12	-4	99	100
COc1ccc(-c2csc(=Nc3ccccc3)n2N2CCOCC2)cc1	5	-7	104	104
CCOC(=O)c1c2n(c3ccc(O)cc13)CCCCC2	-388	-37	101	102
C#CC(C)OC(=O)Nc1cnccc1C(F)(F)F (configuration not stated)	7	6	101	98
C/C(=C/C(=O)N1CCN(C)CC1)C(=O)O	2	-9	101	104
CCCCCC(C)N (configuration not stated)	-25	11	101	100
CC(NC(=O)CSc1nn(-c2ccccc2)c(=S)s1)c1ccccc1 (configuration not stated)	.	-7	108	111
CC(C)(C)NC(=O)CCSc1ccccc1	-15	-22	101	102
CC(C(=O)N1CCc2ccccc21)n1nc(-c2ccccc2)ccc1=O (configuration not stated)	6	5	99	102
CCCCN(c1ccccc1C(=O)O)S(=O)(=O)c1ccc(OC)cc1	-24	9	101	101
Cc1n[nH]c(C)c1N1C(=O)c2cccc3c(N4CCCCC4)ccc(c23)C1=O	-6	-117	76	195
COc1ccc2[nH]cc(CCNC(=O)c3ccco3)c2c1	.	4	104	109
Cc1ccc(OCc2nc(-c3ccc(C(=O)NCCCN4CCN(Cc5ccccc5)CC4)cc3)oc2C)cc1	-10	-15	102	101
Cc1cccc(C)c1OCC(=O)Nc1ccc2c(c1)OCO2	-4	-31	101	100
c1ccc2c(CSc3nc4ccccc4s3)cccc2c1	.	-49	97	95
COc1cccc(/C=N/N(CCO)C2=NS(=O)(=O)c3ccccc32)c1	1	-15	103	102
CCN(C(=O)C1CCC1)c1nc2c(C)cccc2s1	-14	-9	108	116
CCC(=O)c1ccc(OC(=O)C2c3ccccc3Oc3ccccc32)cc1	-2	-18	104	104
CC(=O)N1CCN(C(=O)CSc2ncnc3ccccc23)CC1	-11	-17	104	105
CC(=O)N(C)Cc1nc2ccccc2n1CC(=O)N(C)c1ccccc1	11	-33	105	98
O=c1c2ccccc2nc(CN2CCOCC2)n1-c1cccc(C(F)(F)F)c1	0	-22	101	100
O=C(CCCc1ccccc1)Nc1ccc2c(c1)OCCO2	.	-8	101	90
COCCn1c(SCC(=O)Nc2sc(C)c(C)c2C#N)nnc1C(C)C	-7	-5	103	102
CC1(C)C(=O)C2(CCCCC2)C(=O)OC1C(=O)c1ccccc1 (configuration not stated)	-3	-5	99	105
CC1CCc2c(sc3nc(-c4cc5ccccc5oc4=O)[nH]c(=O)c23)C1 (configuration not stated)	12	3	98	103
Cc1noc(C)c1CSc1nc(-c2ccccc2)c(-c2ccccc2)n1CC1CCCO1 (configuration not stated)	-4	-37	108	104
CCC(CO)Nc1ncnc2sc3c(c12)CCCC3 (configuration not stated)	8	10	104	97
O=c1c2cccc3c2c(nn1CN1CCOCC1)-c1ccccc1-3	3	11	97	99
Cc1cc(=O)[nH]c(Nc2ccccc2)n1	21	6	103	98
O=c1[nH]c(-c2ccccc2)nc2c1Cc1ccccc1O2	27	-4	101	103
CN(C)S(=O)(=O)c1cc(C(=O)O)c(N2CCCCC2)cc1Cl	15	-5	98	102
CCn1cc(C(=O)N(C)CC(OC)OC)c(=O)c2cc(S(=O)(=O)N3CCc4ccccc4C3)ccc21	4	4	101	102
CCCCN(c1ccccc1)S(=O)(=O)c1ccc2c(c1)oc(=O)n2CC(=O)OCC	-3	-5	100	100
CC(C)=CC1C(C(=O)OCc2cccc(Oc3ccccc3)c2)C1(C)C (configuration not stated)	-5	-27	100	103
O=C(CSc1nc2ccccc2o1)NC1CCCc2ccccc21 (configuration not stated)	-8	.	100	101
